From PubChem
Ecoli rRNA inh – reduced GFP signal of wild-type E. coli, primary screen, bacterial rRNA inhibitor project, GFP/RFP fluorescence, OD600, single point | E. coli WT GFP vs humanized-ribosome RFP mutants, 24 h; active compounds read low; DMSO median 0, no signal -100 | GFP signal change (wild-type ribosome), % (no concentration beside the values) | actives 1.6% (n = 350,000);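 active means significant combined selectivity score with lowered wild-type GFP, culture density cut under 30%, mutant RFP and density less affected; inactive means any of these conditions unmet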; further: one replicate is shown; some compounds called inactive have numbers as strong as hits
Ecoli rRNA inh OD600 – also measured in Ecoli rRNA inh; calls as there; OD600 change, %; measured here: OD600 growth;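 optical density of the mix in the first replicate; 0 = DMSO median and -100 = no signal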
Ecoli rRNA inh RFP – also measured in Ecoli rRNA inh; calls as there; RFP signal change, %; measured here: RFP humanized mutant strains;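 first replicate; 0 = DMSO median and -100 = no signal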
* hit, by the source's call; & = joins results of further samples. Only part of the results is shown, so the mix of outcomes need not match the whole.

1) CC(C)NC(=O)Nc1cccc2c1O[C@H](CN(C)Cc1ccc(Cl)c(Cl)c1)[C@@H](C)CN([C@H](C)CO)C2=O
2) O=C(CN1CCOCC1)NC[C@@H]1[C@@H](c2ccccc2)[C@@H](CO)N1CC1CC1
3) C[C@@H]1CN([C@H](C)CO)C(=O)Cc2cc(NC(=O)CCN3CCOCC3)ccc2O[C@H]1CN(C)CC1CC1
4) CS(=O)(=O)Nc1ccc2c(c1)[C@H]1C[C@H](CC(=O)O)O[C@H](CO)[C@H]1O2
5) C[C@H](O)C#Cc1cnc2c(c1)C(=O)N([C@H](C)CO)C[C@H](C)[C@H](CN(C)CC1CC1)O2
6) CC(C)NC(=O)N1[C@@H](CO)[C@H](c2ccccc2)[C@@H]1CNC(=O)CN(C)C
7) CN(C[C@@H]1[C@H](c2ccccc2)[C@@H](CO)N1C(=O)C1CC1)C(=O)c1ccccn1
8) CCS(=O)(=O)Nc1ccc2c(c1)C(=O)N(C)C[C@H](OC)[C@@H](C)CN[C@H](C)CO2

screen / no.	1	2	3	4	5	6	7	8
Ecoli rRNA inh	-2	-2	1	4	7	6	1	4
Ecoli rRNA inh OD600	-2	9	4	-1	8	11	7	1
Ecoli rRNA inh RFP	-1.8	-2.6	0.3	-1.0	0.4	-2.1	-2.9	-3.2

9) COc1ccccc1-c1ccc2c(c1)O[C@@H](CN(C)S(=O)(=O)c1ccc(F)cc1)[C@H](C)CN([C@H](C)CO)S2(=O)=O
10) COCC(=O)N1C[C@H](C)[C@H](OC)CN(C)C(=O)c2ccc(NC(=O)Nc3ccccc3)cc2OC[C@H]1C
11) O=C(CN1CCOCC1)N1CCCCN2[C@H](C1)[C@@H](c1ccc(Br)cc1)[C@@H]2CO
12) CN(C)C(=O)c1ccc(-c2ccc(C3[C@@H]4CN(C(=O)CN5CCOCC5)C[C@H]3N4)cc2)cc1 (stereo partly drawn)
13) O=C(NCC1CCCCC1)[C@@H]1[C@@H](CO)[C@@H]2Cn3c(ccc(-c4cccnc4)c3=O)[C@H]1N2
14) CN1c2ccc(-c3cccc(C#N)c3)cc2[C@H]2[C@H](CCN2C(=O)C2CC2)[C@@H]1CO
15) O=C(Cc1ccccc1)N1C[C@@H]2[C@H](c3ccccc31)[C@@H](CO)N2C(=O)Cc1ccccc1
16) CCS(=O)(=O)N1CC(=O)N2[C@H](C1)[C@H](c1ccc(-c3ccccc3F)cc1)[C@@H]2CO

screen / no.	9	10	11	12	13	14	15	16
Ecoli rRNA inh	-2	-4	3	8&9	0	1	-8	1
Ecoli rRNA inh OD600	-10	0	-2	7&15	6	-18	1	-2
Ecoli rRNA inh RFP	-1.3	-1.0	-4.1	2.7&-1.9	0.7	5.2	0.1	2.8

17) N#Cc1cccc(-c2ccc([C@H]3[C@@H](CO)N[C@@H]3CNC(=O)C3CCC3)cc2)c1
18) O=C(Nc1ccc(F)cc1)N1CC(=O)N2[C@@H](CO)[C@@H](c3ccc(-c4ccccc4)cc3)[C@@H]2C1
19) CN(C)C(=O)c1cccc(-c2ccc3c(c2)[C@H]2[C@H](CCN2C(=O)C2CCCCC2)[C@H](CO)N3)c1
20) O=C(NC[C@@H]1N[C@@H](CO)[C@H]1c1ccc(C2=CCCCC2)cc1)c1ccccc1
21) c1ccc(-c2ccc(C3[C@H]4CNC[C@@H]3N4Cc3ccccn3)cc2)cc1 (stereo partly drawn)
22) CO[C@@H]1CN(C)C(=O)c2cc(NC(=O)Nc3ccc(Cl)cc3)ccc2OC[C@@H](C)N(C(=O)Nc2c(C)noc2C)C[C@@H]1C
23) C[C@@H]1CCCCO[C@@H](CN(C)C(=O)Nc2cccc3ccccc23)[C@@H](C)CN([C@H](C)CO)C(=O)c2cc(NC(=O)CCCCCC(=O)Nc3ccccc3N)ccc2O1
24) CCS(=O)(=O)N(C)C[C@H]1[C@@H](c2ccccc2)[C@@H](CO)N1C(=O)CN(C)C

screen / no.	17	18	19	20	21	22	23	24
Ecoli rRNA inh	-3	-4	-6	-61	8&-1	-1	-2	3
Ecoli rRNA inh OD600	-9	-21	-5	-81	24&-6	-1	8	5
Ecoli rRNA inh RFP	1.4	22	-0.6	-15	5.3&1.4	7.5	-3.4	-1.0

Values in list order from the entries so far.
Ecoli rRNA inh for entries 17–22, in order: -3, -4, -6, -61, 8&-1, -1
Ecoli rRNA inh OD600 for entries 17–22, in order: -9, -21, -5, -81, 24&-6, -1
Ecoli rRNA inh RFP for entries 17–22, in order: 1.4, 22, -0.6, -15, 5.3&1.4, 7.5

Continued:
25) O=C(CC1CC1)N1CC(=O)N2[C@@H](CO)[C@@H](c3ccc(C#Cc4cccc(F)c4)cc3)[C@@H]2C1
26) C[C@@H]1CN(C)C(=O)Cc2ccccc2O[C@H]1CN(C)C
27) CC(C)C#Cc1ccc2c(c1)O[C@@H](CN(C)C(=O)C1CCC1)[C@H](C)CN([C@@H](C)CO)S2(=O)=O
28) COc1ccccc1NC(=O)C[C@H]1CC[C@H]2[C@@H](COc3ccc(NC(=O)C(C)C)cc3C(=O)N2C)O1
29) CNC[C@@H]1OCCCC[C@@H](C)Oc2ccc(NC(=O)CCC(F)(F)F)cc2C(=O)N([C@@H](C)CO)C[C@@H]1C
30) CNC[C@H]1Oc2ccc(NS(=O)(=O)c3ccc(OC)cc3)cc2CC(=O)N([C@H](C)CO)C[C@@H]1C
31) COC(=O)[C@@H]1[C@@H](CO)[C@@H]2Cn3c(ccc(/C=C/c4ccccc4)c3=O)[C@@H]2N1C(=O)CC1CC1
32) COc1cccc(CN2CC3(CN(C)C3)c3c(n(C)c4cc(OC)ccc34)[C@H]2CO)c1

screen / no.	25	26	27	28	29	30	31	32
Ecoli rRNA inh	-1	1	-30	1	5	0	-4	2
Ecoli rRNA inh OD600	-2	4	-57	-1	7	14	-8	-1
Ecoli rRNA inh RFP	3.2	0.6	-2.8	-0.7	-0.6	-1.0	1.5	0.6

33) C/C=C/c1ccc([C@H]2[C@@H](CO)N(C(=O)CC3CC3)[C@H]2CNC(C)C)cc1
34) COc1cccc(CN2C[C@@H]3N[C@H](C2)C3c2ccc(-c3cccc(C#N)c3)cc2)c1 (stereo partly drawn)
35) CCCC#Cc1ccc([C@H]2[C@H]3CN(C(=O)c4cccnc4)CC(=O)N3[C@H]2CO)cc1
36) COCC(=O)N1CC2(C1)CN(C(=O)c1ccccn1)[C@H](CO)c1c2c2ccc(OC)cc2n1C
37) O=C(NC1CCCCC1)N1CC(=O)N2[C@H](C1)[C@H](c1ccc(-c3ccccc3)cc1)[C@@H]2CO
38) CN(C)C(=O)c1ccc(-c2ccc([C@@H]3[C@H]4CN(C(=O)C5CCC5)CC(=O)N4[C@H]3CO)cc2)cc1
39) COc1ccc2c3c(n(C)c2c1)[C@H](CO)NCC31CCN(Cc2cc(F)ccc2F)CC1
40) COc1ccccc1S(=O)(=O)N(C)C[C@@H]1Oc2cc(C#CCC(C)C)ccc2S(=O)(=O)N([C@@H](C)CO)C[C@@H]1C

screen / no.	33	34	35	36	37	38	39	40
Ecoli rRNA inh	1	-60&-61	5	4	-1	2	-1	-1
Ecoli rRNA inh OD600	2	-77&-73	15	12	-13	9	8	-2
Ecoli rRNA inh RFP	-0.4	-14&-17	0.7	-2.8	-2.1	1.9	3.3	-1.7

41) O=S(=O)(c1ccc(F)cc1)N1[C@@H]2CNC[C@H]1C2c1ccc(-c2cccnc2)cc1 (stereo partly drawn)
42) COCC#Cc1ccc([C@H]2[C@@H](CO)N3C(=O)CN(C(=O)Nc4cc(F)ccc4F)C[C@@H]23)cc1
43) COc1ccc(C#Cc2ccc([C@H]3[C@H](CO)N4C(=O)CN(C(=O)c5ccc(F)cc5)C[C@@H]34)cc2)cc1
44) O=C(Nc1ccccc1)N1CCCCN2[C@H](C1)[C@H](c1ccc(C#Cc3cccnc3)cc1)[C@@H]2CO
45) CCC(=O)N1[C@@H](CO)[C@H](c2ccccc2)C12CN(C(=O)NC1CCCC1)C2
46) COCC(=O)N1CC(=O)N2[C@H](C1)[C@@H](c1ccc(-c3cccnc3)cc1)[C@@H]2CO
47) CO[C@@H]1CN(C)C(=O)c2cc(NC(=O)NC(C)C)ccc2OC[C@@H](C)N(CCC(F)(F)F)C[C@H]1C
48) COc1cccc(C#Cc2ccc([C@@H]3[C@H]4CN(C(=O)Cc5ccccc5)CC(=O)N4[C@H]3CO)cc2)c1

screen / no.	41	42	43	44	45	46	47	48
Ecoli rRNA inh	1&-4	5	2	-5	6	-2	-4	-5
Ecoli rRNA inh OD600	11&8	-7	-4	-15	20	-14	-7	-9
Ecoli rRNA inh RFP	-0.8&1.2	-3.3	6.8	0.1	-2.7	-1.6	0.1	27

49) Cc1ccc(S(=O)(=O)N(C)C[C@H]2OCCCC[C@H](C)Oc3ccc(NC(=O)NC(C)C)cc3C(=O)N([C@H](C)CO)C[C@@H]2C)cc1
50) COCC(=O)N1[C@@H]2c3ccc(C4=CCCCC4)c(=O)n3C[C@@H]2[C@@H](CO)[C@@H]1C(=O)N1CCN(C)CC1
51) COc1cccc(NC(=O)N2CC(=O)N3[C@H](CO)[C@H](c4ccc(C#CC5CCCC5)cc4)[C@@H]3C2)c1
52) O=C(NCC1CCCCC1)[C@H]1[C@H](CO)[C@H]2Cn3c(cccc3=O)[C@@H]1N2C(=O)c1cccnc1
53) C[C@@H]1CCCCO[C@@H](CN(C)S(=O)(=O)c2cccs2)[C@H](C)CN([C@H](C)CO)C(=O)c2cc(N(C)C)ccc2O1
54) O=C(C1CCCC1)N1CC(=O)N2[C@@H](CO)[C@@H](c3ccc(-c4ccccc4F)cc3)[C@@H]2C1
55) O=C(C[C@@H]1CC[C@H]2NC[C@H](O)COC[C@@H]2O1)NCCN1CCCC1
56) CCCC(=O)Nc1ccc2c(c1)C(=O)N(C)C[C@@H](OC)[C@H](C)CN(Cc1ccc(F)cc1)[C@@H](C)CO2

screen / no.	49	50	51	52	53	54	55	56
Ecoli rRNA inh	-6	3	2	1	-1	-1	1	-5
Ecoli rRNA inh OD600	-4	20	-1	8	-3	1	1	-23
Ecoli rRNA inh RFP	1.8	0.1	-2.1	-4.4	-0.7	-0.3	-1.2	1.3

Profiles, quoted from the list. Values in the order: Ecoli rRNA inh	Ecoli rRNA inh OD600	Ecoli rRNA inh RFP
CCCC(=O)Nc1ccc2c(c1)C(=O)N(C)C[C@@H](OC)[C@H](C)CN(Cc1ccc(F)cc1)[C@@H](C)CO2 is listed with -5	-23	1.3
C[C@@H]1CCCCO[C@@H](CN(C)S(=O)(=O)c2cccs2)[C@H](C)CN([C@H](C)CO)C(=O)c2cc(N(C)C)ccc2O1 is listed with -1	-3	-0.7

New compounds follow.
57) Cc1ccccc1-c1ccc([C@H]2[C@@H](CO)N3C(=O)CN(C(=O)Nc4cccc(F)c4)C[C@@H]23)cc1
58) CC(C)C[C@H]1COCc2cn(nn2)CC[C@H](Cc2ccc(Cl)cc2)C(=O)N1
59) CCCC#Cc1cnc2c(c1)C(=O)N([C@@H](C)CO)C[C@H](C)[C@H](CN(C)C(=O)c1cccnc1)O2
60) C[C@H]1CN([C@@H](C)CO)S(=O)(=O)c2ccc(-c3ccccc3)cc2O[C@H]1CN(C)Cc1ccccc1
61) COCC(=O)Nc1ccc2c(c1)OC[C@@H](C)N(Cc1cncnc1)C[C@H](C)[C@H](OC)CN(C)C2=O
62) Cc1cc(C(=O)Nc2cccc3c2O[C@@H](CN(C)C(=O)Nc2cccc4ccccc24)[C@H](C)CN([C@H](C)CO)C3=O)n(C)n1
63) CCCNC(=O)N1[C@H](CO)[C@H](c2ccccc2)[C@H]1CNC(=O)c1ccc(F)cc1
64) O=C(C1CCCCC1)N1CC(=O)N2[C@@H](CO)[C@@H](c3ccc(C#CCc4ccccc4)cc3)[C@@H]2C1

screen / no.	57	58	59	60	61	62	63	64
Ecoli rRNA inh	-15	1	1	-27	1	-3	-2	-21
Ecoli rRNA inh OD600	-47	-2	3	-38	1	-2	0	-61
Ecoli rRNA inh RFP	23	3.6	-1.1	20	-1.0	3.4	3.6	29

65) C[C@@H]1CN([C@H](C)CO)C(=O)c2cc(-c3cncnc3)cnc2O[C@H]1CN(C)Cc1ccc(Oc2ccccc2)cc1
66) C[C@@H]1CN([C@H](C)CO)C(=O)c2cccc(NC(=O)c3cnccn3)c2O[C@H]1CN(C)Cc1ccc(Oc2ccccc2)cc1
67) CCC(=O)N1[C@@H]2Cn3c(cccc3=O)[C@H]1[C@@H](C(=O)NC1CCCCC1)[C@@H]2CO
68) Cc1noc(C)c1NC(=O)Nc1ccc2c(c1)C(=O)N([C@H](C)CO)C[C@@H](C)[C@H](CN(C)C(=O)Nc1ccccc1)O2
69) N#C[C@H]1[C@H](c2ccc(-c3cccc(F)c3)cc2)[C@@H](CO)N1c1nc(-c2ccccc2)cs1
70) CC(C)CC#Cc1ccc([C@H]2[C@H]3CN(S(=O)(=O)c4ccccc4)CC(=O)N3[C@H]2CO)cc1
71) CCC(=O)N1CC2(C1)CN(Cc1cccc(Cl)c1)[C@@H](CO)c1[nH]c3cc(OC)ccc3c12
72) CCC(=O)N1C[C@@H](C)[C@H](OC)CN(C)C(=O)c2ccc(NC(=O)c3cc(C)on3)cc2OC[C@H]1C
73) C[C@@H]1CN([C@H](C)CO)C(=O)CCCn2cc(nn2)CO[C@@H]1CN(C)Cc1ccccc1C(F)(F)F

screen / no.	65	66	67	68	69	70	71	72	73
Ecoli rRNA inh	1	-10	-1	5	-4	1	-4	1	2
Ecoli rRNA inh OD600	9	-32	9	8	-2	-21	-11	2	1
Ecoli rRNA inh RFP	1.8	9.3	-0.4	-0.8	-1.2	18	-0.3	-1.2	2.2
